Screening data: PubChem, Broad Institute
Vaccinia inh – Vaccinia orthopox stage-specific inhibition; Vaccinia-infected cells, mCherry/Venus stage reporter fluorescence; stronger effect = lower value; some inactives read as strong as hits; activity change (mCherry), % (test concentration not listed); 89,000 tested, 0.01% active; AID 1053133;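 active = mCherry past -33% and 40 or more points under the early reporter, replicates agreeing; inconclusive = past -33% without that gap or agreement; tested in A549 cells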;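 note: scaled between vehicle wells and reference inhibitor wells; 23 nL library stock went into each well; one replicate is shown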
Vaccinia inh Venus – also measured in Vaccinia inh; calls as there; activity change (Venus), %; measured here: Venus reporter, other viral stage;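 negative = less Venus signal; first of two replicates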
Numbers without * were called inactive; ? = inconclusive; / = no result given; & = joins results of further samples. Some of the compounds tested, so the mix of outcomes need not match the whole.

The line under a structure holds: Vaccinia inh	Vaccinia inh Venus
- Cc1ccc(S(=O)(=O)N(C)C[C@H]2OCCCC[C@@H](C)Oc3ccc(NC(=O)Nc4c(C)noc4C)cc3C(=O)N([C@@H](C)CO)C[C@H]2C)cc1
  3	-11
- COc1ccc(S(=O)(=O)Nc2ccc3c(c2)C(=O)N([C@@H](C)CO)C[C@H](C)[C@H](CN(C)S(=O)(=O)c2cccs2)O3)cc1
  10	4
- C[C@@H]1CCCCO[C@@H](CN(C)C(=O)C2CCCCC2)[C@@H](C)CN([C@@H](C)CO)C(=O)c2cc(NC(=O)C3CCCCC3)ccc2O1
  ?	/
- C[C@@H]1CN([C@H](C)CO)C(=O)c2cc(C3=CCCCC3)cnc2O[C@@H]1CN(C)Cc1ccccc1C(=O)O
  5&21	7&18
- CO[C@@H]1CN(C)C(=O)c2cc(NC(=O)c3ccc4c(c3)OCO4)ccc2OC[C@H](C)N(CCC(F)(F)F)C[C@H]1C
  -26	-17
- Cc1ccc(S(=O)(=O)N(C)C[C@H]2Oc3ccc(NC(=O)Nc4c(C)noc4C)cc3CC(=O)N([C@H](C)CO)C[C@@H]2C)cc1
  -2	-8
- C[C@@H]1CN([C@H](C)CO)C(=O)c2cccc(NS(=O)(=O)c3ccc(F)cc3)c2O[C@@H]1CN(C)Cc1ccncc1
  13	6
- CNC[C@@H]1Oc2c(NS(=O)(=O)c3ccc(C)cc3)cccc2C(=O)N([C@@H](C)CO)C[C@H]1C
  2	6
- C[C@H]1CCCCO[C@@H](CN(C)C(=O)Cc2ccccc2)[C@@H](C)CN([C@@H](C)CO)C(=O)c2cc(NC(=O)c3ccccc3)ccc2O1
  -29	-31
- O=C(Nc1ccccc1F)N1C[C@H]2[C@@H](c3ccccc31)[C@@H](CO)N2C(=O)c1ccccn1
  16	7
- C[C@@H]1CN([C@H](C)CO)C(=O)c2cc(NS(C)(=O)=O)ccc2O[C@@H](C)CCCCO[C@@H]1CN(C)Cc1ccccc1
  2	0
- COCC#Cc1ccc2c(c1)O[C@@H](CN(C)Cc1ccccc1F)[C@H](C)CN([C@H](C)CO)S2(=O)=O
  -25	-25
- COCC#Cc1ccc([C@H]2[C@H](CO)N3CCCCN(Cc4cncnc4)C[C@@H]23)cc1
  35	16
- COc1ccc(S(=O)(=O)Nc2ccc3c(c2)C(=O)N([C@@H](C)CO)C[C@@H](C)[C@@H](CN(C)S(C)(=O)=O)O3)cc1
  8	9
- O=C(C1CCCC1)N1CC2(C1)[C@H](c1ccccc1)[C@@H](CO)N2C(=O)CC1CC1
  13	4

Reformatted: entries from further up.
SMILES	Vaccinia inh	Vaccinia inh Venus
CNC[C@@H]1Oc2c(NS(=O)(=O)c3ccc(C)cc3)cccc2C(=O)N([C@@H](C)CO)C[C@H]1C	2	6
O=C(C1CCCC1)N1CC2(C1)[C@H](c1ccccc1)[C@@H](CO)N2C(=O)CC1CC1	13	4
COc1ccc(S(=O)(=O)Nc2ccc3c(c2)C(=O)N([C@@H](C)CO)C[C@H](C)[C@H](CN(C)S(=O)(=O)c2cccs2)O3)cc1	10	4
C[C@@H]1CN([C@H](C)CO)C(=O)c2cc(NS(C)(=O)=O)ccc2O[C@@H](C)CCCCO[C@@H]1CN(C)Cc1ccccc1	2	0

Later entries
The line under a structure holds: Vaccinia inh	Vaccinia inh Venus
- O=C(C[C@@H]1C=C[C@@H](NC(=O)c2cccc(F)c2)[C@@H](CO)O1)NCc1ccccc1
  -11	-6
- O=C(NCc1nc2ccccc2[nH]1)C1=C[C@@H](C2CC2)C[C@@H](OCc2ccc(CO)cc2)O1
  15	2
- CO[C@H]1CN(C)C(=O)c2cc(NC(=O)Nc3ccccc3F)ccc2OC[C@H](C)N(C)C[C@H]1C
  -10	-8
- CO[C@@H]1CN(C)C(=O)c2ccc(NS(C)(=O)=O)cc2OC[C@H](C)N(Cc2cncnc2)C[C@H]1C
  6	8
- CC(=O)N1CC2(C1)[C@H](c1ccc(-c3ccc(C#N)cc3)cc1)[C@H](CO)N2C(C)=O
  10	10
- CNC[C@H]1Oc2cc(C#Cc3ccccn3)ccc2S(=O)(=O)N([C@H](C)CO)C[C@H]1C
  4	6
- N#C[C@H]1[C@H](c2ccc(-c3cccc(F)c3)cc2)[C@H](CO)N1C(=O)NC1CCCC1
  ?	/
- COc1ccc(C#Cc2ccc3c(c2)O[C@@H](CN(C)C(C)=O)[C@H](C)CN([C@H](C)CO)S3(=O)=O)cc1
  -11	-14
- CO[C@H]1CN(C)C(=O)c2cc(NC(=O)c3ccccc3F)ccc2OC[C@H](C)NC[C@H]1C
  20	21
- CC(C)NC(=O)N[C@H]1CC[C@@H](CCn2cc(-c3ccc(F)cc3)nn2)O[C@@H]1CO
  -2	0
- CC(=O)Nc1ccc2c(c1)C(=O)N(C)[C@H]1CC[C@@H](CC(=O)NCc3ccc(F)cc3)O[C@H]1CO2
  2	-3
- CN1CCN(C(=O)C2=C[C@H](c3ccccc3)C[C@H](OCCCCO)O2)CC1
  16	6
- C[C@H]1CN([C@@H](C)CO)C(=O)c2cc(NC(=O)CCCN(C)C)ccc2O[C@H]1CN(C)Cc1ccc(-c2ccccc2)cc1
  -5	-7
- Cc1noc(C)c1S(=O)(=O)N(C)C[C@H]1OCCCC[C@H](C)Oc2ccc(NC(=O)C3CCCCC3)cc2C(=O)N([C@H](C)CO)C[C@H]1C
  -20	-20
- O=C(C[C@H]1CC[C@@H]2[C@H](COC[C@H](O)CN2C(=O)c2ccc(F)cc2)O1)N1CCOCC1
  1	4
- C[C@@H]1CN([C@@H](C)CO)C(=O)c2cc(NS(=O)(=O)c3cccs3)ccc2O[C@@H](C)CCCCO[C@H]1CN(C)Cc1ccncc1
  -1	-3
- Cc1cc(C(=O)Nc2cccc3c2O[C@H](CN(C)Cc2ccc4c(c2)OCO4)[C@H](C)CN([C@@H](C)CO)C3=O)n(C)n1
  -1	-2
- CCN1[C@@H]2c3ccc(-c4cccc(C(=O)N(C)C)c4)c(=O)n3C[C@H]1[C@H](CO)[C@H]2C(=O)OC
  5	3
- CC(C)C#Cc1cnc2c(c1)C(=O)N([C@H](C)CO)C[C@@H](C)[C@@H](CN(C)Cc1ccccn1)O2
  -8	-4
- C[C@H](CO)N1C[C@H](C)[C@H](CN(C)C(=O)Nc2ccc(F)cc2)Oc2ccc(NC(=O)CCC(F)(F)F)cc2C1=O
  5	14
- CCCNC(=O)N1CC2(C1)CN(C(=O)CC1CC1)[C@H](CO)c1c2c2ccc(OC)cc2n1C
  40	44
- O=C(Nc1ccccc1F)N1CCCCN2[C@H](C1)[C@@H](c1ccc(-c3cccnc3)cc1)[C@@H]2CO
  -3	-5
- C[C@H]1CN([C@@H](C)CO)C(=O)c2cc(/C=C/c3ccccc3)cnc2O[C@H]1CN(C)C(=O)c1cccnc1
  7	-5
- CCCC(=O)N1C[C@@H]2[C@H](c3ccccc31)[C@H](CO)N2Cc1cocn1
  16	9
- C=CC[C@@H](OC(=O)Nc1ccc(SC)cc1)c1ccc(OCCO)cc1
  7	-3
- Cc1noc(C)c1NC(=O)Nc1ccc2c(c1)CC(=O)N([C@@H](C)CO)C[C@@H](C)[C@H](CN(C)C)O2
  8	-3
- CCCN1[C@@H]2c3ccc(-c4ccc(F)cc4)c(=O)n3C[C@@H]2[C@@H](CO)[C@@H]1C(=O)OC
  8	11
- COc1ccc(S(=O)(=O)Nc2cccc3c2O[C@@H](CN(C)C(=O)Nc2ccc4c(c2)OCO4)[C@H](C)CN([C@H](C)CO)C3=O)cc1
  8	7
- N#C[C@@H]1[C@H](c2ccccc2-c2ccc(F)cc2)[C@H](CO)N1C(=O)Cc1ccccc1
  -24	-21
- Cc1ccc(S(=O)(=O)N(C)C[C@H]2OCCCC[C@@H](C)Oc3ccc(NS(=O)(=O)c4ccccc4)cc3C(=O)N([C@@H](C)CO)C[C@@H]2C)cc1
  -21	-3

Another view of part of the listing above.
> O=C(C[C@@H]1C=C[C@@H](NC(=O)c2cccc(F)c2)[C@@H](CO)O1)NCc1ccccc1
  Vaccinia inh = -11
  Vaccinia inh Venus = -6
> O=C(NCc1nc2ccccc2[nH]1)C1=C[C@@H](C2CC2)C[C@@H](OCc2ccc(CO)cc2)O1
  Vaccinia inh = 15
  Vaccinia inh Venus = 2
> CO[C@H]1CN(C)C(=O)c2cc(NC(=O)Nc3ccccc3F)ccc2OC[C@H](C)N(C)C[C@H]1C
  Vaccinia inh = -10
  Vaccinia inh Venus = -8

(more compounds)
The line under a structure holds: Vaccinia inh	Vaccinia inh Venus
- O=C(C[C@H]1C=C[C@@H](NC(=O)c2cccnc2)[C@@H](CO)O1)NCc1ccncn1
  -4	-2
- Cc1noc(C)c1S(=O)(=O)Nc1ccc2c(c1)C(=O)N([C@H](C)CO)C[C@@H](C)[C@@H](CN(C)S(=O)(=O)c1ccccc1)OCCCC[C@H](C)O2
  ?	/
- COc1cccc(S(=O)(=O)Nc2ccc3c(c2)[C@H]2C[C@@H](CC(=O)NCC(F)(F)F)O[C@@H](CO)[C@H]2O3)c1
  1	1
- C[C@H]1CN([C@@H](C)CO)C(=O)c2cc(-c3ccc(F)cc3)cnc2O[C@H]1CN(C)S(C)(=O)=O
  19	20
- C[C@@H]1CCCCO[C@H](CN(C)C(=O)C2CCCCC2)[C@H](C)CN([C@@H](C)CO)C(=O)c2cc(NC(=O)C3CCCCC3)ccc2O1
  -30	-25
- COc1ccc2c3c([nH]c2c1)[C@H](CO)NCC31CN(C(=O)C2CC2)C1
  12	11
- COc1ccc(-c2cnc3c(c2)C(=O)N([C@H](C)CO)C[C@H](C)[C@H](CN(C)C(=O)C2CCOCC2)O3)cc1
  24	14
- O=C(C1CCCCC1)N1C[C@H]2[C@@H](c3ccccc31)[C@H](CO)N2C(=O)c1ccccc1
  10	15
- CO[C@@H]1CN(C)C(=O)c2ccc(NS(C)(=O)=O)cc2OC[C@H](C)N(C)C[C@H]1C
  -7	-4
- COc1ccccc1NC(=O)N1C[C@@H]2[C@H](c3ccccc31)[C@H](CO)N2C(=O)c1ccccc1
  11	2
- C[C@H](CO)N1C[C@H](C)[C@H](CN(C)Cc2ccc3c(c2)OCO3)Oc2ccc(NC(=O)Cc3cn(C)c4ccccc34)cc2C1=O
  -6	-14
- COc1ccc2c3c([nH]c2c1)[C@H](CO)N(C(=O)CC1CC1)CC31CN(C(=O)CC2CC2)C1
  6	11
- CC(=O)N1CC(=O)N2[C@H](CO)[C@@H](c3ccc(C#CC(C)C)cc3)[C@H]2C1
  9	4
- COc1ccc(S(=O)(=O)N(C)C[C@H]2Oc3ccc(NC(=O)CCC(F)(F)F)cc3C(=O)N([C@@H](C)CO)C[C@@H]2C)cc1
  13	-2
- Cc1ccccc1-c1cnc2c(c1)C(=O)N([C@H](C)CO)C[C@H](C)[C@@H](CN(C)C(=O)c1ccccc1)O2
  -5	-7
- Cc1ccc(S(=O)(=O)Nc2ccc3c(c2)C(=O)N([C@H](C)CO)C[C@@H](C)[C@H](CN(C)C(=O)Cc2ccccc2)OCCCC[C@@H](C)O3)cc1
  ?	/
- N#Cc1ccc(-c2ccc3c(c2)[C@@H]2[C@@H](CCN2C(=O)Cc2ccccc2)[C@@H](CO)N3)cc1
  -9	14
- Cc1cccc(S(=O)(=O)N2[C@@H]3c4ccc(-c5ccncc5)c(=O)n4C[C@H]2[C@H](CO)[C@H]3C(=O)O)c1
  4	8
- CO[C@@H]1CN(C)C(=O)c2ccc(NC(=O)Nc3ccccc3)cc2OC[C@@H](C)N(C(=O)CC2CC2)C[C@H]1C
  -12	-7
- CCCC(=O)Nc1ccc2c(c1)C(=O)N(C)[C@H]1CC[C@@H](CC(=O)NCC3CC3)O[C@H]1CO2
  12	8
- CCCC#Cc1cnc2c(c1)C(=O)N([C@@H](C)CO)C[C@H](C)[C@@H](CN(C)CCC)O2
  -1	-8
- C[C@H]1CN([C@@H](C)CO)C(=O)Cc2cc(NC(=O)CCC(F)(F)F)ccc2O[C@H]1CN(C)Cc1ccc(C(F)(F)F)cc1
  -34	-22
- C[C@@H]1CCCCO[C@@H](CN(C)S(C)(=O)=O)[C@@H](C)CN([C@H](C)CO)C(=O)c2cc(NC(=O)CCCN(C)C)ccc2O1
  17	13
- O=C(C[C@H]1CC[C@@H](NC(=O)c2ccccc2)[C@H](CO)O1)Nc1ccc(-c2ccccc2)cc1
  12	12
- COc1cccc(CNC(=O)[C@H]2[C@H](CO)[C@H]3Cn4c(cccc4=O)[C@@H]2N3C(=O)C2CCCCC2)c1
  -6	2
- O=C(NC1CCCCC1)[C@H]1N[C@H]2c3ccc(-c4cccc(F)c4)c(=O)n3C[C@H]2[C@@H]1CO
  10	10
- O=C(C[C@@H]1C[C@H]2c3cc(NC(=O)c4ccc5c(c4)OCO5)ccc3O[C@H]2[C@H](CO)O1)NCc1cccc(F)c1
  -15	-12
- COc1cccc(-c2ccc([C@H]3[C@@H](CO)N4C(=O)CN(C(=O)C5CCCC5)C[C@@H]34)cc2)c1
  -3	4
- C[C@@H]1CN([C@@H](C)CO)C(=O)c2cccc(NC(=O)Nc3ccc(F)cc3)c2O[C@@H]1CN(C)Cc1ccc2c(c1)OCO2
  -12	-11
- C[C@H]1CN([C@@H](C)CO)C(=O)c2cc(NS(=O)(=O)c3ccccc3)ccc2O[C@H]1CN(C)Cc1ccncc1
  10	5
- C[C@H](CO)N1C[C@H](C)[C@@H](CN(C)S(=O)(=O)c2ccc(F)cc2)Oc2ccc(NC(=O)Cc3cn(C)c4ccccc34)cc2CC1=O
  -15	-8
